# MLL AF4-AF9 inh = MLL-AF4/AF9 protein interaction inhibition; AlphaScreen, biotin-AF4 peptide binding to FLAG-AF9; AID 651704; 0.47% of 350,000 active; P42568; inhibition, % at 10 µM;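 active means every replicate reaching a set inhibition limit, whatever the replicate mean, cut at about 25% in these data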;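 further: 0% = plate neutral control median and 100% = total signal loss; the record names both 10 and 1 µM as test concentration; the first replicate is given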
# Target sequence (P42568 whole entry, looked up): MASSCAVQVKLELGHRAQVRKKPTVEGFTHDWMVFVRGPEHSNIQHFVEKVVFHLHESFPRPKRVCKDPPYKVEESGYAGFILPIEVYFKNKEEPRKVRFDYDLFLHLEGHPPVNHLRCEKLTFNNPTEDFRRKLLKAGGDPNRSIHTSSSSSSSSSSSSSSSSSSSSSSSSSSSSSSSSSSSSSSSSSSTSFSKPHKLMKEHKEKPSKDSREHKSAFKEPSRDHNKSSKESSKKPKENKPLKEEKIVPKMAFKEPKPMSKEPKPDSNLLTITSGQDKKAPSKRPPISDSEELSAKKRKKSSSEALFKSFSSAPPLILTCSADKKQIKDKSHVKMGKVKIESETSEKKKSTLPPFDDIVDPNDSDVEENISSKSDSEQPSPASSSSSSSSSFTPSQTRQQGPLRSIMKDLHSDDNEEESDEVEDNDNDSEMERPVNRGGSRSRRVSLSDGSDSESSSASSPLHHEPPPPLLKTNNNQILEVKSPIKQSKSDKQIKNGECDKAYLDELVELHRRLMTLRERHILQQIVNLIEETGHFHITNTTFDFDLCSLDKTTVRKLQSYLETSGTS
# Vif TR-FRET = HIV-1 Vif–A3G interaction blockers – biochemical, TR-FRET, GST-Vif 1-94, biotin-A3G peptide, dose response retest, primary screen (AID 1117319) | TR-FRET GST-Vif / biotin-A3G peptide binding; higher % means a stronger effect; test concentration not given here; strong numbers were not always called active | inhibition, %, or IC50 in µM where a hit was titrated | 0.57% of 260,000 active;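 active means above the screen mean plus three standard deviations and confirmed in dose response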;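 further: Vif residues 1-94 fused to GST binding biotinylated APOBEC3G peptide 110-148; 0% = full assay without inhibitor and 100% = GST in place of GST-Vif; retest series ran down from 100 µM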
# Numbers without * were called inactive; & = joins results of further samples. A portion of the library; count on the stated rates, not on these rows.
SMILES,MLL AF4-AF9 inh,Vif TR-FRET
O=c1[nH]c2ccccc2c(=O)c2ccccc12,0.1,-4%
C[C@@H]1CN([C@@H](C)CO)C(=O)c2cc(NS(=O)(=O)c3ccc(F)cc3)ccc2O[C@@H](C)CCCCO[C@H]1CN(C)C(=O)NC1CCCCC1,-0.2,-4%
Cc1ccc(NC(=O)Cn2cnc3c(NCc4ccccc4)ncnc32)cc1C,-0.7,4%
Cc1cc(S(=O)(=O)N2CCN(CC(=O)N(C)Cc3ccccc3)CC2)ccc1Br,2.0,-5%
CC1=C(C(=O)N(C)C)CC(CC(=O)NC(c2ccccc2)c2ccccc2)C(=O)N1Cc1ccc(C(C)(C)C)cc1 (centres undefined),-0.7,-3%
COc1cc(CNC[C@H]2O[C@@H](n3ccc(N)nc3=O)[C@H](O)[C@@H]2O)ccc1OCc1cccc(Cl)c1,4.5,-4%
O=C1c2ccccc2S(=O)N1c1cccc(F)c1 (centres undefined),-6.0,23%
Cc1ccc(S(=O)(=O)N(C)c2ccc(C(=O)N(C)Cc3nc4ccccc4c(=O)[nH]3)cc2)cc1,0.0,2%
CCC1(CC)NC(=S)NC1=S,-4.7,-10%
O=C(c1cc2ccccc2cc1OCC(O)CN1CCCCC1)N1CCCCC1 (centres undefined),0.0,28%

# Reprinted from the part before: two entries, then new ones.
SMILES,MLL AF4-AF9 inh,Vif TR-FRET
CCC1(CC)NC(=S)NC1=S,-4.7,-10%
O=C(c1cc2ccccc2cc1OCC(O)CN1CCCCC1)N1CCCCC1 (centres undefined),0.0,28%
Cc1cc(C)c(C#N)c(SCC(=O)N(CC(C)C)C2CCS(=O)(=O)C2)n1 (centres undefined),-14,3%
COc1ccc([C@H]2C[C@@H](n3cc(-c4ccc(F)cc4)nn3)[C@H](O)CN2CC2CCCCC2)cc1,-0.3,-7%
N=C(N)c1ccc(N=Nc2c(O)ccc3c2[nH]c2ccccc23)cc1,32*,3.9µM*
COc1ccc(CN(C)C(=O)c2cccc(S(=O)(=O)NCc3ccccc3)c2)cc1F,-2.2,3%
CC1(C)CCCC2(C)C(OCCO)=CC(=O)C=C12 (centres undefined),-0.7,-4%
C[C@H](O)[C@@H]1CN2CCc3c([nH]c4ccccc34)[C@@H]2C[C@@H]1N(C)C(=O)Nc1ccccc1,3.4,-7%
COc1ccc2cc(CN(C)C(=O)CN3C(=O)NC4(CCCC4)C3=O)ccc2c1,4.7,-9%
C[C@@H]1Cn2cnc(C(=O)N[C@@H](C)c3ccccc3)c2C(=O)N1,-1.9,7%
O=C(CN1CCN(c2cnn(-c3ccccc3)c(=O)c2Cl)CC1)NC1CCS(=O)(=O)C1 (centres undefined),-6.2,-4%
O=C(Cc1cccc(NC(=O)C2CCCN(C(=O)C3CCC3)C2)c1)Nc1cccc(C(=O)N2CCCCC2)c1 (centres undefined),-8.8,2%
CCN(CC)C(=O)C1=C(C)N(CCCN2CCCC2=O)C(=O)C(CC(=O)NCc2cccs2)C1 (centres undefined),-1.4,-3%
Cc1cc(C(=O)CCC(=O)N(C)CC2COc3ccccc3O2)c(C)s1 (centres undefined),-4.3,-7%
C[C@H](CO)N1C[C@H](C)[C@@H](CN(C)Cc2ccc(Cl)c(Cl)c2)OCc2cnnn2CCCC1=O,1.2&2.1,-2%
COc1cc(C2c3cc4c(cc3OC(N3CCCC3)C2C)OCO4)cc(OC)c1O (centres undefined),2.0,-4%
CN(Cc1cc(Cl)cc(Cl)c1)CC(C(=O)c1ccccc1)c1ccccc1 (centres undefined),-5.5,-4%
O=C(O)c1ccccc1-c1ccccc1C(=O)Nc1ccc2oc(=O)c3ccccc3c2c1,-2.1,-6%
COc1ccc(C(=Cc2cc(OC)c(OC)cc2[N+](=O)[O-])C(=O)O)cc1,2.7,2%
CCN(CC)c1ccc(C(=O)NNC(=O)CNC(=O)c2ccco2)cc1,0.2,0%
COc1cc(-n2c(C)nc3ncn(-c4ccccc4)c3c2=O)cc(OC)c1OC,2.6,3%
O=C(/C=C/c1cccnc1)/C=C/c1cccnc1,-28,-2%
N#CC(CC(=O)c1ccc(Cl)cc1)c1ccccc1 (centres undefined),-3.2,5%
CCN(CC)S(=O)(=O)c1ccc(-c2cn3ccccc3n2)cc1,1.4,5%
CN1/C(=C/C(=O)COC(=O)CN2C(=O)C3CC=CCC3C2=O)C(C)(C)c2ccccc21 (centres undefined),3.8,0%
COC(=O)C1C2OC(C(Br)C2Br)C1C(=O)OC (centres undefined),-3.4,6%
C[C@@H](NC(=O)C[C@@H]1C[C@@H]2c3cc(NS(=O)(=O)c4ccc(F)cc4)ccc3O[C@@H]2[C@@H](CO)O1)c1ccccc1,-3.1,-2%
COc1ccc(N2c3ccccc3CN(Cc3ccccc3)[C@@H](C)[C@H]2Cc2cccnc2)cc1,25*,0%
CC(=O)C1CCC2C3CC=C4N(C)C(=O)CCC4(C)C3CCC12C (centres undefined),-2.6,-12%
Cc1cn(C(C)C)c(=O)n(-c2ccccc2)c1=O,-7.0,1%
O=C(O)C(=Cc1ccccc1)Cc1ccccc1,-2.7,-3%
Cc1cc(CCNC=O)c(C)c2c1oc1ccccc12,-1.4,-7%
CCN(CC)C(=O)C1=C(C)N(Cc2ccc(OC)cc2)C(=O)C(CC(=O)NCc2cccc3ccccc23)C1 (centres undefined),-3.9,-1%
CC(=O)c1ccc(Nc2nc(-c3ccccc3)nc3ccccc23)cc1,-3.8,-9%
COCCN(CC(=O)Nc1cccc(C)c1C)C(=O)c1ccc2ccccc2n1,-2.6,-7%
COc1cccc(NC(=O)COC(=O)c2ccc3c(c2)OCO3)c1,-1.2,1%
NC(=O)CC1(c2ccccc2)CCCCC1,-4.1,-8%
CSc1nc2ccc(NC(=O)CS(=O)(=O)c3ccccc3)cc2s1,-1.3,-5%
CC(=O)N(C)C[C@H]1Oc2cc(Br)ccc2S(=O)(=O)N([C@H](C)CO)C[C@@H]1C,0.9&-3.5&-3.5,-6%
C(=NOCCc1ccccc1)c1cccnc1,0.0,4%
CN(Cc1ccccc1)C(=O)c1cccc(NC(=O)Cc2ccc(NC(=O)C3CCCN(C(=O)C4CCCCC4)C3)cc2)c1 (centres undefined),-1.8,-2%
C[C@H](NC(=O)COc1ccccc1)C(=O)OCC(=O)c1cc2ccccc2o1,-2.0,0%
CCOC(=O)c1cnc(N)nc1-c1ccccc1,-2.4,-5%
C[C@@H]1CN([C@H](C)CO)C(=O)CCCn2cc(nn2)CO[C@H]1CN(C)C(=O)CCC(F)(F)F,-1.7&0.5,-7%
COc1nc(=O)n(C2OC(CO)C(O)C2O)cc1C (centres undefined),-2.0,-6%
CC(CCc1ccccn1)(CCc1ccccn1)C(=O)c1ccccc1,-15,-8%
CCN1C(=O)[C@H]2[C@H]3CN=C(SCc4ccc(C)cc4)N3[C@@](CC)(C(=O)OC)[C@H]2C1=O,4.3,-1%
Nc1ccn([C@@H]2O[C@H](CNC(=O)[C@@H](Cc3cn(COCc4ccccc4)cn3)NC=O)[C@@H](O)[C@H]2O)c(=O)n1,-1.5,12%
CCC1(C(=O)NC(=Nc2ccccc2)Nc2ccccc2)CCOC1=O (centres undefined),-10,5%
O=C1CCCCC1Nc1ccc2ccccc2c1 (centres undefined),1.4,2%
COC(=O)C1=C(\O)CCCC/C=C\1C(=O)O,-0.6,8%
COc1cc2c(oc(=O)c3cc(C)cc(OC)c32)c2c(C3OC(C)C(O)C(C)(O)C3O)ccc(O)c12 (centres undefined),-1.3,-1%

# (listing goes on)
SMILES,MLL AF4-AF9 inh,Vif TR-FRET
OC1c2cc(Cl)ccc2-c2c(Cl)cc(Cl)cc21 (centres undefined),-0.1,0%
CCN1C(=O)[C@H]2[C@@H](c3ccc(OC)cc3)N[C@]3(CCCN(Cc4ccc(C(F)(F)F)cc4)C3=O)[C@H]2C1=O,2.0,0%
Nc1ccn([C@@H]2O[C@H](CNCc3cnc(N4CCOCC4)s3)[C@@H](O)[C@H]2O)c(=O)n1,-2.7,1%
Cc1ccccc1S(=O)(=O)N1C[C@H]2CON(C)[C@H]2C[C@H]1c1cccc(N2CCOCC2)c1,-0.9,0%
Cc1ccc(NC(=O)c2ncn(CCCNCCCc3ccccc3)n2)cc1C,7.3,1%
C[C@@H](NCCCn1cnc2c(OCc3ccccc3)ncnc21)c1cccc2ccccc12,4.4,-4%
COc1ccccc1NS(=O)(=O)c1cccc(C(=O)N2CCCCCC2)c1,-0.4,-4%
O=S(=O)(c1ccccc1)N1CCN(Cc2ccccc2)c2ccccc21,-0.1,-7%
CN(CC(=O)Nc1ccc(F)c(F)c1F)C(=O)C1(c2ccccc2)CC1,-1.2,1%
COc1ccc([C@H]2C[C@@H](O)[C@H](n3cc(COC(=O)c4ccccc4)nn3)CN2C(=O)C2CCCCC2)cc1,2.9,-5%
CCCNC(=O)CSc1nnc(NC(=O)C2CC(=O)N(c3ccccc3OC)C2)s1 (centres undefined),-2.1,-1%
Cc1ccc(OC(C)C(=O)N2CCc3ccccc32)c([N+](=O)[O-])n1 (centres undefined),-3.3,-6%
CC1(C)SC2c3ccccc3C(=O)N2C1C(=O)O (centres undefined),-5.3,-8%
CC(C)CC1NC(=O)c2cccnc2-n2c1nc1cc(F)ccc1c2=O (centres undefined),-2.0,-4%
CN(Cc1ccc(Cl)c(Cl)c1)C(=O)c1ccccc1SCC(=O)N1CCCC1,1.0,1%
Nc1ccc2c(c1)Cc1cc(Cl)c(Cl)cc1-2,5.9,4%
CC(CNc1ccc(Cl)cc1)(CNc1ccc(Cl)cc1)[N+](=O)[O-],2.0,-2%
Cc1ccc(CN2CCC[C@]3(N[C@H](c4ccccc4)[C@@H]4C(=O)N(Cc5ccccc5)C(=O)[C@@H]43)C2=O)cc1,3.1,2%
COc1cccc(C(=O)OCC(=O)N2CCc3ccccc32)c1OC,1.8,2%
CCCc1cc2c(=O)c(-c3nc4ccccc4s3)c(COCC(=O)O)oc2cc1O,-0.7,3%
COC(=O)[C@H]1C[C@H](OC(=O)NCc2ccc(OC)c(OC)c2)[C@@]2(O)CN(S(=O)(=O)c3ccc(C)cc3)CC2[C@H]1C(=O)OC (some centres undefined),-1.1,-1%
CC(=O)N1CCc2nc3ccccc3cc21,1.1,-2%
CCOC(=O)c1ccccc1OC(=O)NNc1ccccc1,-1.1,-3%
COc1ccc2[nH]c3c(c2c1)CCN1C(=O)C(CC(=O)NCCCn2ccnc2)C[C@H](C(=O)N2CCCCC2)[C@@]31CCc1ccccc1 (some centres undefined),18,-2%
CSc1ccc(CN2CCC(N3CCC(C(=O)NC4CC4)CC3)CC2)cc1,4.2,0%
CCc1ncc(C(O)c2ccc(Cl)cc2)n1Cc1ccccc1 (centres undefined),1.1,-6%
O=C(COC(=O)COc1ccc(Cl)cc1Cl)NC1CCCC1,-3.0,-2%
CC(=O)C1CCC2C3CCC4CC(=O)CCC4(C)C3C(C)(O)CC12C (centres undefined),4.8,3%
Cc1ccc(NC(=O)c2ccc3c(c2)OCO3)cc1S(=O)(=O)N1CCOCC1,-3.1,2%
CCc1ccc(NC(=O)CSc2n[nH]c(=O)n2C2CC2)cc1,5.2,10%
O=C(NC1=CC(=O)c2ccccc2C1=O)c1ccccc1,8.9,21µM*
CC(=O)Nc1sc(C)c(C)c1C(=O)OCC(=O)Nc1ccccc1C(F)(F)F,-0.3,-17%
O=C(Cc1ccc(F)cc1)Nc1cc(S(=O)(=O)N2CCOCC2)ccc1N1CCCCC1,-39,-7%
Cc1nc2[nH]c(=O)n(O)c(=O)c2s1,-6.2,7%
CCN(C[C@H]1N[C@@](C)(C(=O)OC)[C@H]2C(=O)N(Cc3ccccc3)C(=O)[C@@H]12)C(=O)c1ccc(F)cc1,0.6,-3%
CN(C)CCC1(C2=CCCC2)CC/C(=C/c2ccc(Cl)cc2)C1=O (centres undefined),14,0%
S=C1SCN(CCc2ccccc2)CN1CCc1ccccc1,-3.9,6%
NC(=O)c1c(N)sc2c1CCC2,-15,20%
O=C(CNC(=O)c1ccc(Br)o1)Nc1ccc(F)c(S(=O)(=O)N2CCOCC2)c1,-2.1,-6%
CC[C@]12c3[nH]c4cc(-c5ccco5)ccc4c3CCN1C(=O)[C@@H](CC(=O)NCCCOC)C[C@@H]2C(=O)N1CCN(C(=O)c2ccco2)CC1,5.7,0%

# Sorted by count of non-hydrogen atoms (smallest number first): some entries from above
SMILES,MLL AF4-AF9 inh,Vif TR-FRET
NC(=O)c1c(N)sc2c1CCC2,-15,20%
Cc1nc2[nH]c(=O)n(O)c(=O)c2s1,-6.2,7%
O=C(NC1=CC(=O)c2ccccc2C1=O)c1ccccc1,8.9,21µM*
CCOC(=O)c1ccccc1OC(=O)NNc1ccccc1,-1.1,-3%
CCc1ncc(C(O)c2ccc(Cl)cc2)n1Cc1ccccc1 (centres undefined),1.1,-6%
CN(C)CCC1(C2=CCCC2)CC/C(=C/c2ccc(Cl)cc2)C1=O (centres undefined),14,0%
CC(=O)C1CCC2C3CCC4CC(=O)CCC4(C)C3C(C)(O)CC12C (centres undefined),4.8,3%
CSc1ccc(CN2CCC(N3CCC(C(=O)NC4CC4)CC3)CC2)cc1,4.2,0%
Cc1ccc(NC(=O)c2ccc3c(c2)OCO3)cc1S(=O)(=O)N1CCOCC1,-3.1,2%
O=C(CNC(=O)c1ccc(Br)o1)Nc1ccc(F)c(S(=O)(=O)N2CCOCC2)c1,-2.1,-6%
O=C(Cc1ccc(F)cc1)Nc1cc(S(=O)(=O)N2CCOCC2)ccc1N1CCCCC1,-39,-7%
CCN(C[C@H]1N[C@@](C)(C(=O)OC)[C@H]2C(=O)N(Cc3ccccc3)C(=O)[C@@H]12)C(=O)c1ccc(F)cc1,0.6,-3%
COc1ccc2[nH]c3c(c2c1)CCN1C(=O)C(CC(=O)NCCCn2ccnc2)C[C@H](C(=O)N2CCCCC2)[C@@]31CCc1ccccc1 (some centres undefined),18,-2%
CC[C@]12c3[nH]c4cc(-c5ccco5)ccc4c3CCN1C(=O)[C@@H](CC(=O)NCCCOC)C[C@@H]2C(=O)N1CCN(C(=O)c2ccco2)CC1,5.7,0%
